High-throughput results from PubChem.
Sa RN4220 lethal = S. aureus RN4220 growth inhibition | OD600, 16 h | 0.33% of 330,000 active | inhibition, % (test concentration not listed);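 active = z-score of -3 or lower and OD600 up to 0.18 on both plates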;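 note: plate controls were untreated cells for no effect and reference antibiotic for full effect; stock transfer was 100 nL into about 80 µL; one replicate is shown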
PrP 5UTR inh = suppresses PrP 5' UTR mRNA reporter expression. inhibition, % (concentration not given with the values). 0.35% of 340,000 active. cell-based PrP 5' UTR mRNA reporter, plate reader. AID 488862;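 active = every replicate at 50% or more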;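 note: 0 = median of the neutral control wells; tested in H4 reporter cells; numbers are from one replicate; inactives centre near -14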
BJeLR viability = BJeLR cell viability loss. 0.17% of 300,000 active. BJeLR (HRASV12) viability, CellTiter-Glo ATP luminescence, 48 h; reference of the scale not given here. inhibition, % (no concentration beside the values);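 active = replicate mean above 50%; inconclusive = above 50% but judged a plate artefact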;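 note: 50 nL library stock added to about 25 µL; numbers are from one replicate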
Autofluor counter = compound fluorescence in toxin protease inhibitor counterscreen; compound autofluorescence counterscreen, microsphere flow cytometry; active compounds read high; fluorescence intensity (no concentration beside the values); 3.1% of 360,000 active;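 active = at least 3 SD above the mean of all compounds, about 16000 in these data; inconclusive = too few beads counted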;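 note: 100 nL of 1 mM stock went into each well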
Mtb hypoxia rep = reduces hypoxia-regulated biosensor signal in M. tuberculosis; 0.1% of 300,000 active; M. tuberculosis hypoxia-regulated fluorescent reporter, fluorescence; fluorescence inhibition, % (no concentration beside the values);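 active = 35 to 45% if threefold the growth effect, above 45% if 1.5-fold the growth effect; inactive = the rest, general growth blockers included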;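 note: wells of about 50 µL received 100 nL stock; 0% = vehicle wells and 100% = reference inhibitor wells; whole bacteria with a GFP reporter of the hypoxia response; strong numbers were not always called active; many hits fall short of the cut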
Sa ugtP lethal = growth inhibition of S. aureus ugtP deletion strain. growth inhibition, % (concentration not given with the values). S. aureus RN4220 ugtP deletion, OD600 growth, 16 h; some inactives read as strong as hits. 0.54% of 330,000 active. AID 1259309;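 active = z-score under -3 and OD600 up to 0.15 on both plates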;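 note: plate controls were untreated wells for no effect and antibiotic for full effect; wells of about 80 µL received 100 nL stock; the first replicate is given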
Mtb hypoxia rep growth = further read-out of Mtb hypoxia rep, marked with its call; growth inhibition, %; measured here: M. tuberculosis growth (absorbance);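 0% = vehicle and 100% = reference antibiotic; read after six days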
Numbers without * were called inactive; ? = inconclusive; nt = no result given.

SMILES	Sa RN4220 lethal	PrP 5UTR inh	BJeLR viability	Autofluor counter	Mtb hypoxia rep	Mtb hypoxia rep growth	Sa ugtP lethal
O=C(NCC(=O)N(c1ccccc1)C(C(=O)NC1CCCCC1)c1ccncc1)c1ccco1 (stereo not drawn)	1.3	-11	3	4692	nt	nt	6
CC(=NNC(N)=O)C1(C)CCCCC1	-1.4	nt	nt	nt	-11	5	0
CC(=NNC(=O)CNC(=O)C1COc2ccccc2O1)c1ccc([N+](=O)[O-])cc1 (stereo not drawn)	2.9	nt	nt	nt	0	6	0
Cc1c(C=C2C(=O)NC(=O)NC2=O)c(=O)n(-c2ccccc2)n1C	11	-28	10	4419	-4	-7	6
COC(=O)c1ccc2c(c1)SC1=C(CCCC1=O)N2	1.6	-27	-1	2379	nt	nt	-3
COc1cc(C=NNC(=O)c2cc(O)cc(O)c2)ccc1OC(=O)c1ccccc1	-2.3	nt	nt	nt	1	9	4
CNC[C@@H]1Oc2ccc(NS(=O)(=O)c3ccc(Cl)cc3)cc2C(=O)N([C@H](C)CO)C[C@@H]1C	-12	-27	nt	3269	9	9	-2
COc1ccc(NS(=O)(=O)c2ccc(SC)cc2)cc1	-1.7	-11	-6	9051	3	-6	-15
CC(C)C(C)NC(=O)COC(=O)/C=C/c1ccc(S(=O)(=O)N2CCc3ccccc32)cc1 (stereo not drawn)	4.4	-32	2	4622	11	-7	7
COc1cccc(-n2c(Cn3nc(C(F)(F)F)cc3C)n[nH]c2=S)c1	-0.1	-11	-9	2448	-11	10	5
CC(C)(C)c1ccc(OCC(=O)NNC(=O)c2cccnc2)cc1	6.8	7	-1	4326	-2	-5	11
O=C(N/N=C/c1cccnc1)c1cccc(S(=O)(=O)Nc2cccc(Cl)c2)c1	nt	3	-4	3586	nt	nt	nt
CNC(=O)C1(CC(C)C)C=CCN1C(C)=O (stereo not drawn)	-13	-43	-7	4327	2	13	-6
CCCN(C(=O)C1=COCCO1)c1c(N)n(Cc2ccccc2)c(=O)[nH]c1=O	0.5	-26	10	5833	0	-5	0
O=C(CN1C(=O)S/C(=C/C=C/c2ccccc2)C1=O)Nc1ccc(C(=O)O)cc1	3.0	-26	4	2372	9	7	-12
CC1Oc2ccccc2N(CC(=O)N2CCc3ccccc32)C1=O (stereo not drawn)	4.8	-3	0	23145*	12	10	0
O=C(Nc1nccs1)c1ccc2ccccc2n1	7.0	-70	7	5463	5	6	1
CCCCN(C)C(=O)c1cc2cc3ccc(OC)cc3nc2o1	2.7	-33	-4	3511	11	5	1
O=C(COC(=O)CCC(=O)c1cccs1)Nc1ccc(F)c(F)c1F	4.2	-21	nt	3993	17	42	4
Cc1ccc(C(=O)NN=C(CC(=O)c2cccs2)C(F)(F)F)cc1	72	nt	nt	nt	-10	2	69
O=C(CN1CCOCC1)Nc1c(-c2ccccc2)c2cc(Br)ccc2[nH]c1=O	7.0	-16	-7	21333*	6	2	-2
COc1ccccc1NC(=O)CSc1nc2[nH]ncc2c(=O)[nH]1	1.3	-27	-2	?	3	16	9
COc1cc(C=NNC(=O)c2ccc(O)cc2)ccc1Oc1ccc([N+](=O)[O-])cn1	-3.5	nt	nt	nt	-1	-5	-8
COc1cccc(N=c2oc3c(C)ncc(CO)c3cc2C(=O)Nc2ccccc2OC)c1	3.1	nt	-7	nt	12	-3	-5
O=C(COC(=O)CCc1ccccc1)Nc1cc([N+](=O)[O-])ccc1F	2.5	-21	-1	6380	0	-1	1
O=C(COc1ccc(C=NNC(=O)c2ccncc2)cc1)Nc1ccc([N+](=O)[O-])cc1	-0.8	nt	nt	nt	-2	1	3
COc1cc(C2N(C)C(=O)c3ccccc3N2C)ccc1O (stereo not drawn)	5.3	-36	-1	3936	14	10	3
CC1=CC(=NNC(=O)c2ccccc2)CC1	7.7	nt	nt	nt	-8	-5	12
O=C(O)c1cc(C(=O)C2CCCCC2)c[nH]1	0.3	-15	-7	4760	2	5	10
O=C(N/N=C/c1c(O)n(CCc2ccc(F)cc2)c(=O)[nH]c1=O)c1ccncc1	nt	-44	-13	3977	nt	nt	nt

Compounds shown so far that have a thiophene ring, fused or not:
SMILES	Sa RN4220 lethal	PrP 5UTR inh	BJeLR viability	Autofluor counter	Mtb hypoxia rep	Mtb hypoxia rep growth	Sa ugtP lethal
O=C(COC(=O)CCC(=O)c1cccs1)Nc1ccc(F)c(F)c1F	4.2	-21	nt	3993	17	42	4
Cc1ccc(C(=O)NN=C(CC(=O)c2cccs2)C(F)(F)F)cc1	72	nt	nt	nt	-10	2	69

(listing goes on)
SMILES	Sa RN4220 lethal	PrP 5UTR inh	BJeLR viability	Autofluor counter	Mtb hypoxia rep	Mtb hypoxia rep growth	Sa ugtP lethal
COc1ccc(C(=O)n2nc(C)cc2C)cc1Br	-4.2	-8	-3	4311	-4	-5	-10
Cc1ccc(S(=O)(=O)N(CCC#N)CCN2CCCC2)cc1	5.1	-17	8	4823	5	-4	-1
CCn1ncc(C2C(C(=O)Nc3ccc(C)cn3)=C(C)NC3=C2C(=O)CCC3)c1C (stereo not drawn)	2.4	-7	-3	2400	-13	-3	1
O=C(NNC(=O)C1CCN(Cc2ccc(F)cc2Cl)CC1)Nc1ccc([N+](=O)[O-])cc1	-0.4	0	2	4329	1	-6	7
O=C(NCC1CCCCC1)C1CCN(C(=O)NC2CCCCC2)CC1	2.1	-11	-2	6267	1	8	6
O=S1(=O)CC(O)C(NCc2cccnc2)C1 (stereo not drawn)	0.3	1	7	7139	8	-2	17
C=CCN1C(=O)c2ccc(C(=O)NCC(=O)Nc3c(C)cc(C)cc3C)cc2C1=O	-0.8	nt	nt	?	-10	-1	0
COCCCNC(=O)c1c[nH]c2ccc(S(=O)(=O)N3CCC4(CC3)OCCO4)cc2c1=O	8.0	-35	1	3986	14	4	6
CSc1ncnc2c1ccn2CC(=O)Nc1ccc(C)c(C)c1	-0.6	-4	nt	3152	0	16	-9
O=C(Nc1ccccc1Cc1ccccc1)c1ccncc1	-0.2	-14	-3	3964	7	-13	4
CC1Cc2ccccc2N1C(=O)CSc1nnc(C2CC2)n1C (stereo not drawn)	1.9	-12	17	4924	15	3	0
Cc1ccc(S(=O)(=O)N2CCN(c3ccc([N+](=O)[O-])c(Sc4nncn4C)c3)CC2)cc1	7.2	-10	7	2644	4	3	-2
CCSC1=N/C(=C\c2ccc(C)s2)C(=O)S1	2.9	-41	8	8810	2	-5	17
N=c1n(CCN2CCCCC2)c2ccccc2n1CC(O)c1ccco1 (stereo not drawn)	1.3	-19	-1	4455	-18	0	1
N#CCC(=O)Nc1ccc(C(=O)OCC(=O)Nc2cccc(C(F)(F)F)c2)cc1	8.6	-11	2	3939	10	9	-4
CC1CCC(NC(=O)C2CCN(S(=O)(=O)c3ccc4nc5c(c(C(=O)O)c4c3)CC(C)CC5)CC2)CC1 (stereo not drawn)	0.8	-15	10	5016	14	0	4
O=C(c1ccc(N2CCCC2=O)cc1)N1CCN(c2ccccc2Cl)CC1	-0.1	-38	nt	3731	22	12	0
COc1ccc(OC)c(S(=O)(=O)NC(C)(C)C)c1	0.6	-14	6	9504	1	6	-6
Cn1cnnc1SCc1ccc(C(=O)n2ncc(C#N)c2N)cc1	2.6	-9	-3	4204	16	5	-4
Nc1nc(Nc2ccccc2Br)nc(C(F)(F)F)n1	6.0	-10	-8	6144	4	9	8
COc1ccc(C2c3[nH]c4ccccc4c3C[C@H]3C(=O)N(CC(C)C)CC(=O)N23)c(OC)c1 (stereo partly drawn)	4.0	-12	9	3613	5	9	6
Cn1c(-c2ccccc2)cnc1NCc1cc2c(cc1[N+](=O)[O-])OCO2	3.5	-16	-4	10007	-2	7	5
c1ccc(CC(Nc2ccccn2)c2ccccc2)cc1 (stereo not drawn)	-2.4	6	5	1957	-9	-14	18
Clc1cccc(Cc2nn[nH]n2)c1	1.4	-19	0	4478	nt	nt	7
CS(=O)(=O)N(CC(=O)N1CCN(Cc2ccccc2)CC1)c1cccc(F)c1	4.6	-60	5	3413	-1	1	-2
CCCCOC(=O)CSC1=C(C#N)C(c2ccccc2OCC)C(C#N)C(=O)N1 (stereo not drawn)	0.9	-3	-6	4218	-3	-11	0
CCOc1ccc(NC(=O)Nc2cc(C)on2)cc1	5.0	-40	1	5744	-7	6	-6
CCc1cc(C(=O)Cc2nc3ccccc3[nH]2)c(O)cc1O	0.9	-5	-3	3798	4	11	-3
CCOc1ccc(OCc2cccc(C(=O)N(CC)CC)c2)cc1	6.9	-47	1	2212	2	8	10
O=C(CSC1=NCCS1)Nc1nc2ccccc2s1	-2.6	-43	2	13576	-3	3	-1

Part of the list above, as comma-separated lines.
SMILES,Sa RN4220 lethal,PrP 5UTR inh,BJeLR viability,Autofluor counter,Mtb hypoxia rep,Mtb hypoxia rep growth,Sa ugtP lethal
COc1ccc(OC)c(S(=O)(=O)NC(C)(C)C)c1,0.6,-14,6,9504,1,6,-6
CS(=O)(=O)N(CC(=O)N1CCN(Cc2ccccc2)CC1)c1cccc(F)c1,4.6,-60,5,3413,-1,1,-2

The listing continues:
SMILES	Sa RN4220 lethal	PrP 5UTR inh	BJeLR viability	Autofluor counter	Mtb hypoxia rep	Mtb hypoxia rep growth	Sa ugtP lethal
Cc1[nH]c2ccccc2c1C(=O)/C=C/c1ccccc1	-10	-94	2	5121	nt	nt	-17
CSc1ccc(Cl)c(C(=O)NNC(=O)c2cccs2)c1	17	-17	nt	3595	9	6	-3
Cc1ccccc1Nc1c(-c2ccccn2)nc2ccccn12	17	-20	5	4622	5	9	-16
O=C(NCc1ccccc1)NS(=O)(=O)c1ccccc1Cl	7.0	-35	-5	9388	2	5	-2
COc1ccc(C2CC(c3ccccc3OC(C)=O)=NN2C(=O)/C=C/c2ccccc2)cc1OC (stereo not drawn)	4.6	3	-17	2215	4	-5	-8
O=C(NCCCN1CCCCC1)C1CCN(c2ncnc3c2nc2n3CCCCC2)CC1	1.3	-5	2	5589	7	11	3
Cc1cc(C(=O)Nc2c(C)nn(Cc3ccccc3)c2C)on1	2.7	-26	14	6956	4	7	9
C=CCOc1ccc(/C=C/C(=O)Nc2ccc(C(=O)NC)cc2)cc1	5.3	-17	-1	1991	-6	-15	-1
CCOC(=O)C1=C(COC(=O)/C=C/c2ccc(OC)c(OC)c2)NC(=O)NC1C (stereo not drawn)	1.1	9	-9	?	-3	-2	-4
CN(CCC1CCOCC1)C(=O)CC1C(=O)NCCN1Cc1cccc(F)c1 (stereo not drawn)	1.2	-13	3	6156	10	-6	-1
O=C(NCC1CCCN1S(=O)(=O)c1cccs1)c1ccc(F)cc1 (stereo not drawn)	2.7	-9	2	?	10	3	2
COCCN(C(=O)c1snc(C(N)=O)c1N)C(C(=O)NC1CCCC1)c1cc(OC)c(OC)c(OC)c1 (stereo not drawn)	3.2	-16	-10	3050	19	1	1
C=CCN1C=C2C(=O)C(C)(OC(=O)c3cccs3)C(=O)C=C2C=C1CCCC(=O)OC (stereo not drawn)	10	-9	0	3964	4	4	2
CC1CCCC(C)N1CCCNC(=O)Cn1ncc2c3ccccc3n(C)c2c1=O (stereo not drawn)	2.1	-39	-3	5371	5	2	9
CC(=O)NCCc1ccc(C(=O)CSc2nnc(C3CC3)n2C2CC2)cc1	1.8	8	nt	8632	1	11	-1
CCOC(=O)Cc1csc(NC(=O)CSc2nc(-c3ccccc3)c(C#N)c(=O)[nH]2)n1	4.5	-9	-6	4519	10	0	1
CCOc1ccc(-c2nnc(N3CCCCC3)c3ccccc23)cc1	-2.3	-19	-2	8579	0	6	-21
Cn1cc(C(=O)C(=O)NC2CCCCC2)c2ccccc21	4.2	-23	-1	6517	5	8	8
COc1cccc(N(C(=O)Cn2nnc(-c3ccc(F)cc3)n2)C(C(=O)NCC2CCCO2)c2ccc(Cl)cc2)c1 (stereo not drawn)	2.1	-36	-12	4323	6	2	8
CCOc1ccc(C=NNC(=O)CSc2n[nH]c(=O)[nH]c2=O)cc1OC	2.3	nt	nt	nt	9	5	5
CC(C)/C=C/C(=O)N1CCC(N2CCC(C(=O)NCc3ccccn3)CC2)CC1	3.6	-9	-4	5155	4	3	6
COc1ccc2c(c1)Cc1sc(NC(=O)c3cccs3)nc1-2	0.7	-72	4	18806*	8	8	-1
CC[C@H](C)[C@H](NC(N)=O)C(=O)NCCc1ccc(Cl)cc1Cl	0.4	-21	4	4958	5	-8	2
